YopH inh: YopH (Yersinia) phosphatase inhibition; fluorescence Ex485/Em525; inhibition, %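 (about 10 µM by stock and volumes)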; 140,000 tested, 0.16% active;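 active means inhibition of 50% or more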;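 further: controls were vehicle for no effect and minimum signal wells for full effect; inactives centre near -20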
Arbovirus anti: antivirals against arbovirus infection; arbovirus infection cell-based antiviral screen; inhibition, % at 10 µM; 200,000 tested, 0.37% active;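 active means inhibition from about 30%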;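 further: bluetongue infection of BSR cells; cell survival read as ATP light after 72 h; 0% = infected wells without compound and 100% = uninfected wells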
Mtb growth: M. tuberculosis H37Rv growth inhibitors, H37Rv strain (AID 1626). M. tuberculosis H37Rv growth inhibition; higher % means a stronger effect. inhibition, % at 10 µM, or IC50 in µM where a hit was titrated. 220,000 tested, 0.95% active;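 active means confirmed in a dose series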;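 further: bacteria incubated seven days before Alamar blue readout; 0% = bacteria only wells and 100% = bacteria with antibiotic wells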
RecA intein inh: inhibitors of M. tuberculosis RecA intein splicing. P9WHJ3. cell-free RecA intein splicing, fluorescence. inhibition, %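 (about 9 µM by stock and volumes)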. 290,000 tested, 0.75% active. AID 2221; in the data active means inhibition above about 30%;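 further: 0% = vehicle wells and 100% = reference inhibitor control wells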
Target sequence (P9WHJ3 whole entry, looked up): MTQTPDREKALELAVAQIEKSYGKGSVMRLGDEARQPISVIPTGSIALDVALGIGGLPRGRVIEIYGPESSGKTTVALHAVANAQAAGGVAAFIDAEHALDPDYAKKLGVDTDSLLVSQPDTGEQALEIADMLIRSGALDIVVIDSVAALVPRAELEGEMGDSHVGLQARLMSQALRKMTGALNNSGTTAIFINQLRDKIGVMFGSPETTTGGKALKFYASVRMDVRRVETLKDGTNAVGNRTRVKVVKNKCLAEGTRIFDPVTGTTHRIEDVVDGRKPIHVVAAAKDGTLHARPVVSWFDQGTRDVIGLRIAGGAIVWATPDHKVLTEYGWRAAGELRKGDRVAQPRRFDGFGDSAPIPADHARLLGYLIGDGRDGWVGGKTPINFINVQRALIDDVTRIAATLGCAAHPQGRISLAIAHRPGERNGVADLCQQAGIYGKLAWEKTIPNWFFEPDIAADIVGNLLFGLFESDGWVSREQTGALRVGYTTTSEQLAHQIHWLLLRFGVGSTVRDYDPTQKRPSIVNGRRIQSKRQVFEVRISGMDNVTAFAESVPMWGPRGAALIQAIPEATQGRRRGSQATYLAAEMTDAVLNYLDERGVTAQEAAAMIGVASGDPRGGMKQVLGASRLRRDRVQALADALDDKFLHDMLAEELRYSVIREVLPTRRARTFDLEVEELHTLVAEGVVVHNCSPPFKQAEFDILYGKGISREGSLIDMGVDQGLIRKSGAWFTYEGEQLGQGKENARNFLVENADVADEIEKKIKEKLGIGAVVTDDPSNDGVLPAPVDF
Mtb betalactam: beta-lactam sensitization of Mtb H37Rv. AID 434955. 330,000 tested, 0.27% active. inhibition, % at 25 µM. M. tuberculosis H37Rv growth with meropenem, percent inhibition; hits of this screen are not shown here;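 active means about 74% or more and at least 40 points above the plate without the antibiotic, then above 30% in a dose series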;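 further: growth measured after seven days incubation then overnight dye step; 0% = bacteria only wells and 100% = bacteria with antibiotic; twin plates without the antibiotic show which effects depend on it; some results filed as inactive read as strong as hits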
Arbovirus anti repeat: further read-out of Arbovirus anti, marked with its call; inhibition, %; measured here: 10K subset replicate screen; many hits read low in the repeat;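 first of two repeat runs on a subset; 0% = infected and 100% = uninfected wells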
* hit, by the source's call; · = no result given. A portion of the library; the hit share may differ from the screen's.

SMILES	YopH inh	Arbovirus anti	Mtb growth	RecA intein inh	Mtb betalactam	others
COC(=O)[C@@H](NC(=O)N1CCN(C(=O)C2COc3ccccc3O2)CC1)C(C)C (some centres undefined)	·	·	·	1.9	10
CCCCNC(=O)N1c2ccccc2CC1C (centres undefined)	·	1	2%	0.4	-2
CCCOc1ccccc1NC(=O)/C=C/C(N)=O	12	2	3%	2.0	·
O=C(CCS(=O)(=O)c1ccc2c(c1)NC(=O)CS2)NCc1cccs1	·	·	·	-0.1	0
COc1cccc(-c2nc3ccc(N4CCN(C)CC4)cc3[nH]2)c1	·	-1	6%	-0.7	-8
CS(=O)(=O)c1ccc(C(=O)Nc2ccc(N3CCCC3)cc2)c(Cl)c1	·	3	7%	-3.5	1
O=C1CCCC2=C1C(c1ccco1)Nc1ccc(C(=O)c3ccccc3)cc1N2 (centres undefined)	-29	-22	-3%	2.0	3
COc1ccc(OCC(=O)Nc2ccc3c(c2)nc(CCN2CCCCC2)n3C)cc1	·	·	·	-0.9	-4
COc1cc(CO)ccc1OCC(=O)N1CCc2ccccc21	·	·	·	-3.6	-7
O=C(CSc1ccc(F)cc1)Nc1ccc(N2CCOCC2)c(Cl)c1	·	·	·	0.9	-5
Cc1ccc2c(c1)C(CCN)C(=O)N2Cc1ccccc1 (centres undefined)	3	-12	-12%	3.4	-21
Cc1cc(NC(=O)COc2coc(CN3CCN(c4ccccc4F)CC3)cc2=O)no1	·	·	·	-0.5	0
Nc1ccc(C(=O)N/N=C/c2ccccc2)cc1	-12	5	-6%	0.9	-7
COc1ccc(CCNC(=O)COc2ncnc3cc([N+](=O)[O-])ccc23)cc1	-9	-7	-6%	-2.2	7
CC1=NOC(=O)/C1=C/c1ccc2c(c1)OCO2	·	-8	2%	-3.6	8
Cc1ccccc1OCC(=O)Nc1ccc(Cc2ccncc2)cc1	-25	-10	7%	·	60
COc1ccc(NC(=O)CCCSc2ccccc2)cc1	·	-4	>100µM*	-3.6	69
N#Cc1ccc(CSc2nnc(COc3ccccc3)n2-c2ccccc2)cc1	12	-8	6%	5.0	6
Cc1cccc(-c2cnn(-c3cccc([N+](=O)[O-])c3)c2N)c1	·	-6	-3%	2.3	-6
Cn1c(=O)c2c(nc(NCCCO)n2Cc2cccc(Br)c2)n(C)c1=O	-22	1	-10%	-1.3	14
Cc1ccc(Nc2c(-c3ccccc3)nc3cnccn23)cc1	·	6	4%	0.9	-7
CC1(C)Cc2c(sc3nc(SCC(=O)O)[nH]c(=O)c23)CO1	-27	-2	-1%	-0.5	-2
O=C(CCC1CCCCC1)NCCS(=O)(=O)N1CCN(c2ccccc2F)CC1	·	·	·	-0.6	-2
COc1ccc2nc(NC(=O)/C=C/c3ccc4c(c3)OCO4)sc2c1	6	-24	1%	-13	-1

For convenience, 3 of the compounds above:
SMILES	YopH inh	Arbovirus anti	Mtb growth	RecA intein inh	Mtb betalactam	others
CC1(C)Cc2c(sc3nc(SCC(=O)O)[nH]c(=O)c23)CO1	-27	-2	-1%	-0.5	-2
O=C(CCC1CCCCC1)NCCS(=O)(=O)N1CCN(c2ccccc2F)CC1	·	·	·	-0.6	-2
COc1ccc2nc(NC(=O)/C=C/c3ccc4c(c3)OCO4)sc2c1	6	-24	1%	-13	-1

Back to the main list; the 2 compounds before the break are reprinted first.
SMILES	YopH inh	Arbovirus anti	Mtb growth	RecA intein inh	Mtb betalactam	others
O=C(CCC1CCCCC1)NCCS(=O)(=O)N1CCN(c2ccccc2F)CC1	·	·	·	-0.6	-2
COc1ccc2nc(NC(=O)/C=C/c3ccc4c(c3)OCO4)sc2c1	6	-24	1%	-13	-1
Cc1ccc(C)c(S(=O)(=O)NCCOc2nc(NC(C)C)nc(NC(C)C)n2)c1	9	4	7%	1.7	1
Nc1nonc1C(=O)N/N=C/c1ccc(-c2cccc(C(=O)O)c2)o1	·	3	1%	-3.5	3
COc1ccc(N2CCN(S(=O)(=O)c3ccc(OC)c(C(=O)N4CCOCC4)c3)CC2)cc1	·	·	·	-1.6	-5
Cc1nn2c(N3CCN(C(=O)c4ccco4)CC3)cc(C(C)(C)C)nc2c1-c1ccc(Cl)cc1	-36	-3	12%	·	·
COc1cccc2cc(C(=O)N3CCN(c4ccccn4)CC3)c(=O)oc12	-17	2	-1%	-2.2	-15
COc1ccc(-c2nnc3n2CCCCC3)cc1OC	·	·	·	-2.7	0
Cc1cccc(C(=O)N2CCCC(N3CCN(c4cccc(Cl)c4)CC3)C2)n1 (centres undefined)	·	·	·	-0.3	-11
Cc1ccc(S(=O)(=O)NCc2nc3ccccc3c(=O)n2N)cc1	9	11	-13%	-0.9	-7
Cc1nc2scc(C)n2c(=O)c1S(=O)(=O)Nc1ccc(N2CCOCC2)c(Cl)c1	·	·	·	2.5	0
Cc1cc2c(cc1C)C(c1cccc([N+](=O)[O-])c1)CC(=O)N2 (centres undefined)	-24	-9	3%	-2.1	-4
O=C(O)c1ccc(CNCc2c(Cl)cccc2Cl)cc1	-34	-3	-17%	-1.8	·
O=C(O)CCCCCNC(=O)c1ccc(Br)cc1	-10	4	-2%	0.7	6
COc1ccc(CNC(=O)CCc2c[nH]c3ccccc23)cc1	·	·	·	6.1	7
CC(=O)c1cnc(Nc2nc(C)c3cc(C)c(C)cc3n2)nc1C	3	0	-6%	-4.6	5
Cc1ccc(CNC(=O)c2ccc(N3CCC4(CC3)CC(c3cccc(Br)c3)=NO4)c(N)c2)cc1	·	·	·	-0.5	86
CCN(CC)CC(O)c1cccn1-c1ccc(CNC(=O)NC(C)C)cc1 (centres undefined)	·	1	1%	-1.3	0
Cc1ccccc1OCC(O)CN1CCCCC1 (centres undefined)	·	-5	2%	1.3	-11
CCn1c(SCC(=O)NNC(=O)c2ccc(C)cc2)nnc1C1CC1	·	·	·	-0.3	-2
Cc1ccc(C2NC(=S)NC(c3ccc(C)cc3)C23C(=O)NC(=O)NC3=O)cc1 (centres undefined)	-26	11	6%	7.7	-2
Cc1ccc(C(=O)NCC(=O)N(C)CC(=O)Nc2c(Cl)cccc2Cl)s1	·	·	·	0.2	-11
O=C(COc1ccccc1)NCC(=O)Nc1ccncc1	·	·	·	-6.3	-10
O=C(NC1CCCCC1)N1CCN(C(c2ccccc2)c2ccccc2)CC1	-7	2	60%	0.3	52
COc1cccc(-c2csc(NC(=O)Nc3ccccc3)n2)c1	·	·	·	12	86
O=c1[nH]oc2cc(Cl)ccc12	·	·	-6%	0.0	0
CS(=O)(=O)N1CCN(C(=O)CCC2CCCC2)CC1	-11	10	-4%	1.7	21
CC(=O)Nc1ccc(C(=O)NNC(=O)c2ccc(Cl)cc2)cc1	·	·	·	0.7	1
Cc1ccccc1CC1S/C(=N/N=C/c2ccco2)NC1=O (centres undefined)	·	·	·	-3.2	53
COc1ccc(C)cc1NC(=O)C(=O)NCc1ccncc1	-14	-2	-5%	-1.6	·
Cc1cc2oc(C(=O)NCc3ccc4c(c3)OCO4)c(C)c2cc1C	-18	7	-8%	1.5	-8
COc1ccc(Nc2nc(Cl)nc(NCc3ccco3)n2)c(OC)c1	-25	0	-4%	1.0	-10
CC(C)CC(=O)C1=C(O)C(=O)N(Cc2ccccc2)C1c1ccccc1 (centres undefined)	·	·	·	-1.8	4
Cc1cc(C)cc(NC(=S)N(Cc2ccc(Br)cc2)Cc2ccc(C(=O)O)cc2)c1	·	-16	8%	15	-4
CCCN1CCN(CCCNC(=S)Nc2ccc(F)cc2)CC1	·	-1	-7%	-3.3	-1
CCOC(=O)c1cc(C)n(CCc2ccccc2)c1C	-15	-2	2%	7.8	31
COc1ccc(CCNC(=O)C(C)Sc2ccccc2)cc1OC (centres undefined)	-41	-2	-13%	-1.1	0
O=C(NCc1cc(F)cc(C(F)(F)F)c1)C1CCC(=O)N(C2CCCC2)C1 (centres undefined)	·	·	·	-0.5	1
O=C(NCC1CCCN(C(=O)NCc2ccccc2)C1)c1ccc2c(c1)OCO2 (centres undefined)	·	-5	3%	-0.1	5
CCCCCN(C(=O)CCC(=O)OCc1ccc(C(C)C)cc1)c1c(N)n(CCCC)c(=O)[nH]c1=O	·	·	·	-0.8	-8
Cc1ccc(-c2csc(N(CCO)CCCn3c(C(F)(F)F)nc4cc(C(F)(F)F)ccc43)n2)cc1	·	·	·	7.2	-5
Cc1sc2ncnc(OCC(=O)NC(C)C)c2c1C	6	6	-18%	-1.6	-11
COc1ccc(CC(=O)N/N=C(\C)CC(=O)Nc2cccc(F)c2)cc1	·	·	·	1.5	1
COc1ccc(C(=O)Oc2cc3c4c(c2)C(C)=CC(C)(C)N4C(=O)C3=O)cc1OC	-7	-1	43%	-2.2	34
Cc1[nH]c2ccccc2c1C(=O)CSc1nccc(=O)[nH]1	·	·	3%	-0.4	-4
Cc1c(Cl)cccc1NC(=O)CNC(=O)c1ccco1	·	·	·	-2.8	8
Cc1ccc(NC(=O)N(CCC#N)Cc2ccccc2)cc1	·	·	-16%	13	-6
COCC(=O)N1CCC(Oc2ccc(C(=O)NCCc3ncccc3C)cc2)CC1	·	·	·	-1.7	-5
Fc1ccc(Cn2cc(C(=S)N3CCOCC3)c3ccccc32)cc1	·	·	5%	6.1	2
COc1ccc(-c2c(NC(=O)c3ccco3)oc3ccc(Cl)cc3c2=O)cc1	·	·	·	0.0	0

Ordered by molar mass (low to high): part of the list above
SMILES	YopH inh	Arbovirus anti	Mtb growth	RecA intein inh	Mtb betalactam	others
Cc1ccc(NC(=O)N(CCC#N)Cc2ccccc2)cc1	·	·	-16%	13	-6
COc1ccc(-c2c(NC(=O)c3ccco3)oc3ccc(Cl)cc3c2=O)cc1	·	·	·	0.0	0
COCC(=O)N1CCC(Oc2ccc(C(=O)NCCc3ncccc3C)cc2)CC1	·	·	·	-1.7	-5

Further structures:
SMILES	YopH inh	Arbovirus anti	Mtb growth	RecA intein inh	Mtb betalactam	others
CN(C)C(=O)COC(=O)c1cccc(S(=O)(=O)Nc2ccc(OCc3ccccc3)cc2)c1	·	·	·	12	-8
O=c1[nH]c(NCCCO)nc2c1C1(CCCC1)Cc1ccccc1-2	-11	-10	9%	-1.5	3	Arbovirus anti repeat=-8
Cc1cccc(N2C(=O)N3[C@H](c4ccc(F)cc4)[C@@H]4C(=O)N(C5CCCCC5)C(=O)[C@@H]4[C@]3(Cc3ccc(Cl)cc3)C2=O)c1	·	·	·	3.4	-6
Fc1ccc(NC(=S)NCCc2ccccn2)cc1	·	8	3%	-3.7	5
O=C(O)c1ccccc1NC(=O)c1cc(-c2ccccc2)nc2ccccc12	·	·	·	5.4	93
O=C(NC1CCCC1)C(c1ccncc1)N(C(=O)c1csnn1)c1ccccc1F (centres undefined)	·	·	·	-0.3	2
COc1ccccc1CN1CCCC(C(=O)c2ccccc2SC)C1 (centres undefined)	·	6	0%	0.4	98
O=C(C1CCCCC1)N1CCN(S(=O)(=O)c2ccc(Cl)cc2)CC1	-19	-4	9%	2.1	-8
Cc1nn(C)cc1CNC(=O)C1CCC(=O)N(CC2CCCCC2)C1 (centres undefined)	·	·	·	1.4	-12
O=C(NCCc1ccccc1Cl)C1CCC(=O)N(CCCc2ccccc2)C1 (centres undefined)	·	·	·	3.0	3
CCCOC(=O)c1c(N)n(Cc2cccs2)c2nc3ccccc3nc12	-3	8	0%	18	14
Cc1ccc(Cn2c(CCNc3nc(-c4ccc(Cl)c([N+](=O)[O-])c4)cs3)nc3cc(Cl)c(Cl)cc32)cc1	·	·	-8%	0.2	-7
C/C(=N\OC(=O)C1CC1)C1CC1c1ccc(F)cc1 (centres undefined)	·	-3	11%	-1.2	-3
CC(C)(C)c1csc(NC(=O)c2ccncc2)n1	·	-11	4%	8.2	-6
Brc1ccc(COn2ccnc2)cc1	·	4	2%	-1.5	·
O=C(CNC(=O)N1CC(=O)Nc2ccccc21)Nc1ccccc1F	·	·	·	0.1	-1
O=C(CCOc1ccccc1F)N1CCN(c2ccccc2O)CC1	·	-13	9%	3.3	-6
COc1ccc(CCn2c(=N)c(C(=O)NCCN3CCOCC3)cc3c(=O)n4ccccc4nc32)cc1OC	·	·	·	-0.1	-1
Cn1c(=O)c([N+](=O)[O-])c(-n2cnc3ccccc32)c2ccccc21	·	·	5%	63*	-10
O=C(Nc1cccnc1)c1ccc(Cl)c(S(=O)(=O)N2CCCCCC2)c1	-48	-5	-6%	-0.3	5
O=C(N/N=C/c1ccccc1Cl)c1ccncc1	·	·	·	-5.3	99
Cc1ccc(CCC(=O)Nc2cc(Cl)ccc2Cl)o1	·	·	·	-4.1	22
Cc1cc(=O)[nH]c(N/N=C/c2ccco2)n1	-9	5	·	0.0	-1
CC1(C)Cc2c(c(N3CCOCC3)nc3snc(N)c23)CO1	-39	-35	-3%	-0.9	61
Cc1cc(C)nc(SCCn2c(N(C)Cc3ccccc3)nc3c2c(=O)n(C)c(=O)n3C)n1	7	-5	3%	-0.6	-3
Cc1nn(C(C)C(=O)NCCCN2CCCCCC2)c(=O)c2cc3sccc3n12 (centres undefined)	·	·	·	-0.5	-5
CCC(=O)/C=C1/Sc2ccccc2N1CC	-27	-7	6%	-0.2	2
COc1ccc(-n2c(SC)nc(O)c(Cc3ccccc3)c2=O)cc1	-68	-2	3%	5.0	-4
Cc1ccccc1CN1CCCOCCS1(=O)=O	·	·	·	-5.2	1

Screening results from PubChem.
